T cruzi inh: T. cruzi replication inhibition | T. cruzi beta-gal in NIH3T3, luminescence, 90 h | inhibition, % (no concentration beside the values) | actives 1.4% (n = 300,000);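 active = mean inhibition across valid replicates above about 55%, limit read from the data; inconclusive = mean below that limit but half or more replicates reach it; inactive = mean below it, under half of replicates reach it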;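 note: signal also drops with host cell toxicity which is not excluded here; 0% = plate median of DMSO wells and 100% = zero luminescence signal; higher percent means less beta-gal luminescence so fewer parasites; stock transfer was 50 nL into about 50 µL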
LANA-H2A inh: blocks KSHV LANA binding to histone H2A/H2B | Q9QR71 | cell-free LANA-H2A/H2B peptide, fluorescence polarization | inhibition, % (test concentration not listed) | actives 0.6% (n = 320,000) | AID 2629; in the data active = inhibition mostly above about 10%, no sharp cut-off; inactive = mostly below about 6.7%;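 note: stock transfer was 7.5 nL into about 10 µL; 0% = median of vehicle wells and 100% = median of positive control wells; one replicate is shown; the record names a cut of 25% in any replicate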
Target sequence (Q9QR71 whole entry, looked up): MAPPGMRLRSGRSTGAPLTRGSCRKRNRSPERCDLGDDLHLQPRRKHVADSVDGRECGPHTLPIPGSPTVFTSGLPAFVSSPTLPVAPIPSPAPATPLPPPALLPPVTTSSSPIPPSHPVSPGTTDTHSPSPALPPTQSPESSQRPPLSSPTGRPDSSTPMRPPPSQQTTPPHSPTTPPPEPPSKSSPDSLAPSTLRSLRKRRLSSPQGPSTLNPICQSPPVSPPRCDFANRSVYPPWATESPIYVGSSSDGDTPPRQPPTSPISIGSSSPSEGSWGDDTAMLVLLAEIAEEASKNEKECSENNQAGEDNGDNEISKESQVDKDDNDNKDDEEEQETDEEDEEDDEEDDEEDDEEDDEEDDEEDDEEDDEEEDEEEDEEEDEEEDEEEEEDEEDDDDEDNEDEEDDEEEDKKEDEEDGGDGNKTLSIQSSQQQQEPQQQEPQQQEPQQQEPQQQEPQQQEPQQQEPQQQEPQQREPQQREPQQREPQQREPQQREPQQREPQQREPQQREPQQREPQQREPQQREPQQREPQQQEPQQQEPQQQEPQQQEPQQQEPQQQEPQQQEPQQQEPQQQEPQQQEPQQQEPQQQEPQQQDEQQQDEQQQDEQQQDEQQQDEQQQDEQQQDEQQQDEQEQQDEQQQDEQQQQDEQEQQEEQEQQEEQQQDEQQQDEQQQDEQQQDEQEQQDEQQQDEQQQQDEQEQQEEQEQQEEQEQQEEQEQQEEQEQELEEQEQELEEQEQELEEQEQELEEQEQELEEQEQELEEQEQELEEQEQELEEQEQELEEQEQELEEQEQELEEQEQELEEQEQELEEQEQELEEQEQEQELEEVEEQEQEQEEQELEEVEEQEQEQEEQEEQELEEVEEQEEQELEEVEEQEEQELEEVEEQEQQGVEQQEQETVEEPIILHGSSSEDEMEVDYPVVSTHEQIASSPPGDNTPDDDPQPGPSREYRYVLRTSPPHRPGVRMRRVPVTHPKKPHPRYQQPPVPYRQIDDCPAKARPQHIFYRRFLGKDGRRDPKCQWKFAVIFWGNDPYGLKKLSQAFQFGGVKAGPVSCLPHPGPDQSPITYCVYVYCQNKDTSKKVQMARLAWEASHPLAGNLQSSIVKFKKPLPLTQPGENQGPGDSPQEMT
Beta apoptosis: beta cell apoptosis inhibition | INS-1E cytokine-induced death, ATP luminescence, 48 h; percent of positive-control rescue, neutral wells zero | protection from apoptosis, % (concentration not given with the values) | actives 0.8% (n = 300,000);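 active = all replicates at 75% or more, or half of them and the mean; inconclusive = half reach 75% but not the mean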;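 note: 0% = cytokine-treated negative control wells and 100% = positive control rescue; higher means more ATP so stronger rescue from cytokine killing; wells of about 40 µL received 100 nL stock; the first replicate is given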
Ecoli rRNA inh: selective bacterial rRNA inhibition in E. coli; E. coli WT GFP vs humanized-ribosome RFP mutants, fluorescence, 24 h; active compounds read low; DMSO median 0, no signal -100; GFP signal change (wild-type ribosome), % (test concentration not listed); actives 1.6% (n = 350,000); AID 720706;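 active = significant combined selectivity score with lowered wild-type GFP, culture density cut under 30%, mutant RFP and density less affected; inactive = any of these conditions unmet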; note: one replicate is shown; some compounds called inactive have numbers as strong as hits
ALR inh: blocks human ALR sulfhydryl oxidase activity. P55789. purified ALR, DTT oxidation, H2O2 HRP-luminol luminescence. inhibition, % (concentration not given with the values). actives 3.8% (n = 290,000). AID 485317;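 active = mean and each replicate at 75% or more; inconclusive = only one of the two met; inactive = neither met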;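 note: stock transfer was 7.5 nL into about 7.5 µL; 0% = neutral wells and 100% = wells with inactivated enzyme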
B2AR ag: activates human beta-2 adrenergic receptor causing internalization; Am2.2-beta2AR cells, FAP receptor internalization, flow cytometry; reference of the scale not given here; response, % (test concentration not listed); actives 0.43% (n = 340,000); AID 504454;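 active = response above a set limit, near 3 SD of response in nonfluorescent compounds, cut at about 42% in these data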;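 note: stock transfer was 100 nL into about 11 µL; a reference agonist was the positive control; negative values mostly stem from fluorescent compounds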
A1 inh: inhibitors of the anti-apoptotic protein A1, read as caspase activation. MEF A1-2A-BIM cells, Caspase-Glo 3/7 luminescence, 3 h; percent of clofoctol response, vehicle zero. caspase activation, % (concentration not given with the values). actives 0.066% (n = 330,000). AID 2462;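 active = over half of replicate activation scores above 10%, or exactly half above 10 with the replicate mean above 10; inconclusive = replicate mean below 10 yet half the replicates above 10; inactive = over half of replicates below 10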;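 note: wells of about 30 µL received 50 nL stock; many hits fall short of the cut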
Calb FLC: affects C. albicans growth with fluconazole; C. albicans CaCi-2 (fluconazole-resistant clinical isolate) + fluconazole, Alamar Blue growth, 48 h; growth inhibition, % (test concentration not listed); actives 0.57% (n = 300,000);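 active = most replicates above 75%; inconclusive = exactly half above 75%; inactive = most below 75%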;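 note: all wells also contain fluconazole at 8 µg/ml as a sub-toxic cotreatment; 0% = median of DMSO wells and 100% = median of geldanamycin control wells; wells of about 8 µL received 7.5 nL stock; the first replicate is given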
Ecoli rRNA inh OD600: recorded beside Ecoli rRNA inh, whose call it bears; OD600 change, %; measured here: OD600 growth;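 optical density of the mix in the first replicate; 0 = DMSO median and -100 = no signal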
Ecoli rRNA inh RFP: also measured in Ecoli rRNA inh; calls as there; RFP signal change, %; measured here: RFP humanized mutant strains;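 first replicate; 0 = DMSO median and -100 = no signal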
Numbers without * were called inactive; ? = inconclusive; · = not tested or not shown. The list is partial; rates above refer to the full screens.

structure	Beta apoptosis	B2AR ag	LANA-H2A inh	Calb FLC	T cruzi inh	Ecoli rRNA inh OD600	Ecoli rRNA inh	Ecoli rRNA inh RFP	A1 inh	ALR inh
COc1ccc(CCNC(=O)CN(c2ccc(OC)c(OC)c2)S(=O)(=O)c2ccccc2)cc1OC	-14	11	-0.6	2	9	2	8	-0.4	1.2	0
COc1ccc(-c2csc3nc(-c4ccc(C)cc4)oc(=O)c23)cc1OC	17	14	3.3	9	-8	6	8	4.9	0.0	11
O=[N+]([O-])c1cccc(S(=O)(=O)N2CCN(c3ccccn3)CC2)c1	2	-2	4.1	-7	12	13	12	-0.1	0.1	-5
COc1ccc(-c2cc(C(=O)NC(C)c3ccccn3)c3ccccc3n2)cc1OC (stereo unspecified)	-7	8	2.3	·	·	-14	-9	-1.8	0.3	2
CSCCC(NS(=O)(=O)c1ccc2c(c1)oc(=O)n2C)C(=O)NCc1ccccc1 (stereo unspecified)	0	-1	1.2	2	-1	11	11	1.6	0.2	·
O=c1c2ccccc2nc(SCc2cn3ccsc3n2)n1-c1ccccc1	0	-7	0.1	11	21	·	·	·	1.0	9
CC1=C(C(=O)OCC2CCCO2)C(c2coc3ccccc3c2=O)C2=C(CCCC2=O)N1 (stereo unspecified)	-5	-7	3.3	-21	0	11	12	0.3	0.8	-3
CCC(=O)Nc1cccc(NC(=S)NC(=O)c2ccc(C)cc2)c1	0	-5	1.6	28	-12	6	-1	3.1	0.0	·
CCC(=O)Nc1ccc2c(c1)C(=O)c1ccccc1C2=O	8	-14	1.7	19	25	·	·	·	-5.0	-9
CCc1noc(C)c1C(=O)NCCc1ccc(Cl)cc1	3	-2	2.6	-2	-7	1	-5	-2.1	0.7	-12
CC(CCc1ccccc1)NC(=O)CNC(=O)c1cccs1 (stereo unspecified)	1	1	-12	-9	-6	0	0	-0.6	0.2	-1
O=S(=O)(NC(=S)NC1CCCCC1)c1cccs1	7	-6	3.2	1	-10	0	0	-1.6	1.7	7
COc1ccccc1OCc1ccc(C(=O)NC(C)(C)C)o1	-9	-2	3.3	6	3	·	·	·	1.3	8
CCCCn1nc(C(=O)N(CCOC)c2c(N)n(CCCC)c(=O)[nH]c2=O)c2ccccc2c1=O	2	-2	12	·	·	7	0	-2.7	-0.5	0
CC1(C)CC(NC2C3CC4CC(C3)CC2C4)CC(C)(C)N1 (stereo unspecified)	5	3	-4.1	8	12	10	12	-2.2	0.5	-2
Cc1sc2ncn(CC(=O)N3CCC(C(N)=O)CC3)c(=O)c2c1S(=O)(=O)N1CCOCC1	-1	0	-4.2	-5	-8	11	7	-1.5	0.5	2
NS(=O)(=O)c1ccc(NC(=O)c2ccc(Cl)c(S(=O)(=O)NCc3ccco3)c2)cc1	0	-4	-4.2	·	·	4	7	-0.9	0.1	0
COc1ccc2cc3cc(C(=O)NCCN4CCc5ccccc5C4)oc3nc2c1	1	2	3.6	·	48	·	·	·	-0.5	-32
Cc1[nH]nc2nc(SCC(=O)NCC3CCCO3)n(-c3ccc(Br)cc3)c(=N)c12 (stereo unspecified)	3	-4	2.8	24	18	·	·	·	0.9	-12
O=C(NCc1ccco1)/C(=C/C=C/c1ccccc1)NC(=O)c1ccco1	-5	2	-3.7	12	-11	-5	-3	3.7	0.7	-2
CC(C)C(NS(=O)(=O)c1cccc2nsnc12)C(=O)N1CCc2ccccc2C1 (stereo unspecified)	1	-4	3.0	-18	10	·	·	·	0.9	-4
C=CCn1c(-c2ccccc2OC)n[nH]c1=S	5	0	-2.4	-3	-13	·	·	·	0.5	·
Cc1c(C(=O)Nc2ccc(Cl)cc2)c2ccccn2c1C(=O)c1ccc([N+](=O)[O-])cc1	0	3	2.3	27	66*	·	·	·	0.4	-2
O=[N+]([O-])c1ccc2nc(/C=C/c3ccc(Cl)cc3)[nH]c2c1	29	21	1.1	34	18	·	·	·	-1.1	-6
COc1ccccc1Cn1nnc2c(=O)[nH]c(C3CCN(C(=O)c4ccc(C)cc4)CC3)nc21	4	15	-3.3	4	2	·	·	·	0.6	-2
COc1ccc(N(C(=O)c2ccc(C)cc2)S(=O)(=O)c2cccs2)cc1	-4	4	-3.8	4	-10	-21	-12	3.9	0.1	11
O=S(=O)(NCc1cc(-c2ccccc2)no1)c1ccc(Cl)cc1	-7	3	-4.0	-17	-8	·	·	·	0.1	-5
c1ccc(OCCOc2ncnc3sccc23)cc1	-1	-9	2.0	2	13	·	·	·	0.8	-1
N#CC1=C(N)Nc2ncnn2C1c1ccc(F)cc1 (stereo unspecified)	4	-4	-1.6	9	-4	-3	4	1.0	0.1	0
COc1ccc(CCNC(=O)C2(C)CCC(=O)N2Cc2ccc3c(c2)OCO3)cc1OC (stereo unspecified)	·	3	2.8	-15	-2	-2	4	-0.9	0.9	-16
NNC(=O)CCc1ccc(S(=O)(=O)N2CCOCC2)cc1	-2	0	-0.1	-7	-4	6	14	-6.0	-1.3	2
COc1cc2c(cc1OC)C(C)N(C(=O)c1cc3c(s1)-c1c(C)cccc1OC3)CC2 (stereo unspecified)	-1	-1	-0.8	9	12	-7	-9	2.6	0.5	-8
CCCn1c(=O)c(C(=O)NCc2ccncc2)c(O)c2ccccc21	-9	2	1.6	?	2	·	·	·	2.4	-5
O=C1N(c2cccc3ccccc23)C(c2ccccc2)N2CCCN12 (stereo unspecified)	-2	0	3.7	2	-11	·	·	·	0.5	-20
CC(=O)Oc1ccc(Cl)cc1/C=C/c1ccc2ccccc2n1	7	3	2.5	3	-4	·	·	·	-5.4	10
O=S(=O)(NCc1ccccn1)c1ccc(F)cc1	-2	7	-4.9	12	-5	7	12	1.1	0.0	0
O=C1CSC2(C(=O)N3CCCc4cccc2c43)N1c1cccc(C(F)(F)F)c1 (stereo unspecified)	-3	0	-1.2	3	4	·	·	·	0.6	-13
Cc1ccc(C(=O)Nc2cccc(-c3cnc4ccccc4n3)c2)cc1	13	-7	1.1	9	-6	·	·	·	0.3	5
C[C@@H]1COC(=O)[C@@H](CC(=O)OC(C)(C)C)C/C=C\C[C@H](CC(=O)N(CCO)Cc2ccccc2)C(=O)N1	3	-4	2.6	·	·	2	-1	-2.2	0.6	-5
Cc1nn(-c2ccc(N3CCCCC3)nn2)c(C)c1CCC(=O)Nc1ccc(F)cc1	2	-9	-9.0	-1	-19	-15*	-28*	-1.8*	-1.3	-2
C(=C\c1ccccn1)/c1ccncc1	-6	2	-1.1	9	30	11	8	-1.1	-6.6	0
CCOC(=O)c1cnc2c(C)cc(Cl)cc2c1N1CCN(C)CC1	9	12	-0.4	1	19	3	-1	-2.1	1.2	-2
CCc1cc(C(c2ccc(F)cc2)N2CCOCC2)c(NC(=O)c2ccccc2)s1 (stereo unspecified)	-15	14	0.7	?	13	·	·	·	0.9	2
CC(C)Cc1cc(C(=O)N2CCCC(C(=O)c3cc(F)ccc3F)C2)n(C)n1 (stereo unspecified)	2	-1	-3.7	0	-2	-11	-2	-0.4	0.6	-2
CCN(CC)S(=O)(=O)c1ccc(OCCNS(C)(=O)=O)cc1	·	2	2.0	-7	-13	2	16	-0.1	0.3	-5
Cc1cc(C)nc(NN=C2CCCC2)n1	-3	-3	-0.9	-4	-3	·	·	·	0.0	-27
CC(=O)Nc1ccc2c(c1)C(=O)N(C1CCCCC1)C2=O	-4	-1	2.6	-8	-5	·	·	·	-0.5	-5
O=C(Cc1ccccc1)Nc1ccc(C(=O)Nc2ccc(O)cc2)cc1	4	3	-10.0	1	-3	6	3	-2.1	-0.8	-8
Cn1c(SCC(=O)NCc2ccc(F)cc2)nc2ccccc21	0	-2	6.6	2	-2	·	·	·	0.8	-7
c1ccn2c(SCc3cn4ccsc4n3)nnc2c1	-4	4	0.8	0	8	·	·	·	0.8	-6
O=C1C=C(N2CCCCC2)c2ccccc2C1=O	117*	15	-1.9	-18	3	-47	-25	6.3	0.1	-4
CC(C)CC(=O)Nc1ccccc1N1CCN(C(=O)c2ccccc2)CC1	-6	-3	0.6	-9	2	·	·	·	0.6	-1
C=CCn1c(=O)c2ccccc2n2c(SCC(=O)N3CCCc4ccccc43)nnc12	9	-2	-6.1	-1	8	·	·	·	1.2	3
COC(=O)c1ccc(CNC(=O)c2sccc2-c2ccccc2)cc1	4	6	2.2	22	7	-25	-4	-0.6	0.6	2
COc1ccc(NC(=O)c2ccc(-c3ccc([N+](=O)[O-])cc3)o2)cc1OC	5	22	4.4	5	2	-28*	-42*	-3.5*	0.3	-18
COc1ccc(/C=N/NC(=O)CNC(=O)c2ccncc2)cc1OC	0	-7	-2.4	1	-7	5	6	-0.7	-0.3	-10
O=C(O/N=C(/c1ccccc1)c1ccncc1)c1ccc(F)cc1	-5	-1	-3.5	-3	1	29	16	-0.2	0.3	5
CCOc1ccc(-n2c(SCC(=O)Nc3ccccc3C)n[nH]c2=O)cc1	1	-2	-3.5	-5	9	·	·	·	0.7	10
O=C(c1cc2c(ccc3ccccc32)o1)N1CCN(c2ncc(C(F)(F)F)cc2Cl)CC1	3	98*	3.5	-8	-8	·	·	·	0.0	2
CCn1c(SCC(=O)NC2CCCc3ccccc32)nnc1-c1ccncc1 (stereo unspecified)	6	5	6.8	-16	11	·	·	·	0.0	-6

Following part:
structure	Beta apoptosis	B2AR ag	LANA-H2A inh	Calb FLC	T cruzi inh	Ecoli rRNA inh OD600	Ecoli rRNA inh	Ecoli rRNA inh RFP	A1 inh	ALR inh
COc1ccc2c(=O)cc(-c3cccnc3)oc2c1OC	-4	1	-6.0	-11	-5	-5	-13	-10	0.1	-6
COc1ccc(C)cc1N(C(=O)c1cccc(F)c1)c1nc2ccccc2s1	7	14	4.2	·	·	·	·	·	-1.0	2
COc1ccc(/C=N/n2c(C)nc3ccccc3c2=O)cc1	-5	-13	-2.8	3	-18	8	1	-1.5	-0.4	-1
CCc1ccc(-n2ccc(=O)c(C(=O)O)n2)cc1	-2	10	2.1	-2	-20	3	10	3.8	?	-1
CCC(NC(=O)Cn1cnc2c(=O)n(C)c(=O)n(C)c21)c1ccccc1 (stereo unspecified)	-1	4	-0.3	-10	-2	·	·	·	0.0	-2
CCn1c(=O)c(C(=O)NCCc2ccccc2)c(O)c2ccccc21	-2	-58	-0.6	31	22	·	·	·	-0.2	1
Cn1c(CNc2ccccc2)cc(=O)n(C)c1=O	2	3	-2.5	0	0	·	·	·	1.0	6
Cc1ccc2c(CC(=O)OCC(=O)Nc3ccc(Cl)cn3)coc2c1	-5	-2	-3.6	-7	-6	0	3	-0.4	0.9	-8

High-throughput results from PubChem BioAssay.
